rRNA inh HTS: inhibitors of bacterial rRNA selective over humanized ribosomes; GFP signal change (wild-type ribosome), % (test concentration not listed); E. coli WT GFP vs humanized-ribosome RFP mutants, fluorescence, 24 h; active compounds read low; DMSO median 0, no signal -100; AID 720706; 350,000 tested, 1.6% active;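 active means significant combined selectivity score with lowered wild-type GFP, culture density cut under 30%, mutant RFP and density less affected; inactive means any of these conditions unmet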; further: one replicate is shown; some compounds called inactive have numbers as strong as hits
rRNA inh HTS OD600: recorded beside rRNA inh HTS, whose call it bears; OD600 change, %; measured here: OD600 growth;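 optical density of the mix in the first replicate; 0 = DMSO median and -100 = no signal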
rRNA inh HTS RFP: recorded beside rRNA inh HTS, whose call it bears; RFP signal change, %; measured here: RFP humanized mutant strains;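 first replicate; 0 = DMSO median and -100 = no signal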
The depositor's hits bear a star; & = joins results of further samples.

rRNA inh HTS	rRNA inh HTS OD600	rRNA inh HTS RFP	compound
-4	-11	-1.8	CC[C@H]1CC=CC[C@@H](C)Oc2ccccc2C(=O)N(C)[C@H](C)C(=O)N1 (mixture of isomers)
1	-4	-1.4	C[C@@H]1CCCCO[C@@H](CN(C)S(C)(=O)=O)[C@@H](C)CN([C@@H](C)CO)C(=O)c2cc(NC(=O)Cc3ccccc3)ccc2O1
0	7	0.1	O=C1N[C@H](Cc2ccccc2)COCc2cnnn2CC[C@@H]1Cc1cccc(F)c1
4	9	0.7	O=C(NC[C@@H]1[C@H](c2ccccc2)[C@@H](CO)N1CC1CCCC1)c1cccnc1
-2	-1	-0.9	CC(C)NC(=O)N(C)C[C@H]1Oc2ncc(C#CC3CCCCC3)cc2C(=O)N([C@H](C)CO)C[C@@H]1C
2	2	-0.1	CNC[C@@H]1Oc2ccc(NC(=O)NC(C)C)cc2C(=O)N(C)C[C@H]1C
-2	-1	-3.4	N#C[C@H]1[C@@H](c2ccc(C3=CCCC3)cc2)[C@H](CO)N1c1nc(-c2ccccc2)cs1
-1	5	0.8	C[C@H]1CC=CC[C@@H](c2ccc3c(c2)OCO3)NC(=O)[C@H](Cc2ccccc2)N(C)C(=O)c2ccccc2O1 (mixture of isomers)
0	0	-0.4	O=C(C[C@@H]1C=C[C@H](NS(=O)(=O)c2ccccc2)[C@H](CO)O1)N1CCN(c2ccccc2)CC1
-2	2	3.1	CCCNC(=O)N1CC2(CCN(Cc3ccc(F)cc3)CC2)c2c([nH]c3cc(OC)ccc23)[C@H]1CO
-6	-27	-2.8	CCCC(=O)Nc1ccc2c(c1)C(=O)N(C)C[C@H](OC)[C@@H](C)CN(Cc1ccc(F)cc1)[C@H](C)CO2
-3	5	-2.8	CN(C)CC(=O)N1[C@@H](CO)[C@@H](c2ccccc2)C12CN(C(=O)c1ccc(F)cc1)C2
3	-6	-4.6	C[C@H](CO)N1C[C@H](C)[C@@H](CN(C)C(=O)CCN(C)C)OCc2ccccc2-c2ccccc2C1=O
-1	3	-4.3	O=C(c1ccc2c(c1)OCO2)N1CC2(C1)[C@H](c1ccccc1)[C@H](CO)N2C(=O)C1CC1
-3	-1	1.8	N#Cc1ccc(-c2ccc([C@@H]3[C@H]4CN(C(=O)C5CC5)CC(=O)N4[C@H]3CO)cc2)cc1
0	-1	0.4	C[C@@H]1CCCCO[C@H](CN(C)C(=O)CCCN(C)C)[C@@H](C)CN([C@@H](C)CO)C(=O)c2cc(NC(=O)c3ccccc3)ccc2O1
-4	-1	1.1	CCC(=O)NC[C@@H]1[C@@H](c2ccc(-c3ccccc3)cc2)[C@@H](CO)N1C(=O)C1CC1
-17	-56	19	O=C(CC1CC1)N1CC(=O)N2[C@@H](CO)[C@H](c3ccc(C#Cc4cccc(F)c4)cc3)[C@@H]2C1
-2	8	0.2	CCS(=O)(=O)N1CC(=O)N2[C@H](CO)[C@H](c3ccc(C4=CCCC4)cc3)[C@@H]2C1
0	11	-0.4	CCCNC(=O)N1C[C@@H](C)[C@H](OC)CN(C)C(=O)c2ccc(NC(C)=O)cc2OC[C@H]1C
9	20	-1.6	CN(C)C(=O)c1cccc(-c2ccccc2[C@H]2[C@H](C#N)N(C(=O)C3CCCC3)[C@H]2CO)c1
2	2	-1.9	C[C@@H]1CCCCO[C@@H](CN(C)S(=O)(=O)c2ccc(Cl)cc2)[C@@H](C)CN([C@H](C)CO)C(=O)c2cc(NC(=O)C3CCCCC3)ccc2O1
1	7	-0.1	C[C@@H]1CCCCO[C@@H](CN(C)S(C)(=O)=O)[C@@H](C)CN([C@H](C)CO)C(=O)c2cc(NC(=O)CCC(F)(F)F)ccc2O1
2	34	-3.0	C/C=C/c1ccc([C@H]2[C@@H](CO)N3C(=O)CN(C(=O)Cc4cccnc4)C[C@@H]23)cc1
3	1	-0.5	CCCC#Cc1ccc([C@H]2[C@H](CO)N3C(=O)CN(C(=O)Cc4cccnc4)C[C@@H]23)cc1
-6	-12	-0.2	O=C(NC1Cc2ccccc2C1)[C@H]1N[C@H]2c3ccc(C4=CCCC4)c(=O)n3C[C@H]2[C@@H]1CO
-3	-6	-0.3	COc1cccc(NC(=O)C[C@@H]2CC[C@H]3[C@@H](COc4ccc(NC(=O)C5CCCC5)cc4C(=O)N3C)O2)c1
-3	-6	0.5	CCC(=O)NC[C@H]1[C@@H](c2ccc(-c3ccc(C#N)cc3)cc2)[C@@H](CO)N1CCC(F)(F)F
2	-4	-1.6	C[C@H]1CN(C)C(=O)c2cccc(N)c2O[C@H]1CN(C)S(C)(=O)=O
-4	-12	0.8	C[C@@H]1CCCCO[C@@H](CN(C)S(=O)(=O)c2ccc(F)cc2)[C@H](C)CN([C@@H](C)CO)C(=O)c2cc(NC(=O)C3CCCCC3)ccc2O1
0	-1	-2.2	COc1cccc(C(=O)Nc2ccc3c(c2)C(=O)N(C)C[C@H](OC)[C@@H](C)CN[C@@H](C)CO3)c1
1	2	2.5	CC(=O)N1CC(=O)N2[C@H](CO)[C@@H](c3ccc(-c4ccc(C#N)cc4)cc3)[C@@H]2C1
-4	-11	2.1	CO[C@@H]1CN(C)C(=O)c2cc(NC(=O)Nc3cccc(F)c3)ccc2OC[C@@H](C)N(C(=O)C2CC2)C[C@H]1C
4	6	-1.0	Cc1ccc(S(=O)(=O)Nc2ccc3c(c2)C(=O)N([C@H](C)CO)C[C@H](C)[C@@H](CN(C)S(=O)(=O)c2ccccc2)OCCCC[C@@H](C)O3)cc1
0	10	-1.4	Cc1ccc(-c2ccc(C3[C@@H]4CN(Cc5ccccc5)C[C@H]3N4)cc2)cc1 (stereo partly drawn)
-3	-30	30	COc1ccccc1NC(=O)N1CC(=O)N2[C@H](CO)[C@@H](c3ccc(C#Cc4ccc(F)cc4)cc3)[C@H]2C1
3	5	0.7	CO[C@@H]1CN(C)C(=O)c2ccc(NC(=O)Nc3ccc4c(c3)OCO4)cc2OC[C@H](C)NC[C@@H]1C
2	0	-2.8	O=C(c1cccnc1)N1CC2(C1)[C@@H](c1ccccc1)[C@@H](CO)N2Cc1cccnc1
6	7	-2.6	CO[C@@H]1CN(C)C(=O)c2ccc(NS(=O)(=O)CC(F)(F)F)cc2OC[C@@H](C)N(Cc2ccccn2)C[C@H]1C
3	2	-2.2	CCCN1[C@@H]2c3ccc(-c4cccc(F)c4)c(=O)n3C[C@H]1[C@H](CO)[C@H]2C(=O)N(C)C
0	-37	27	COc1ccccc1C#Cc1ccc([C@@H]2[C@H](C#N)N(C(=O)C3CCCC3)[C@H]2CO)cc1
0	-8	1.0	O=C(C1CCCC1)N1CC2(C1)[C@@H](c1ccccc1)[C@@H](CO)N2CCC(F)(F)F
-1	-9	2.8	Cc1ccc(S(=O)(=O)Nc2ccc3c(c2)C(=O)N([C@H](C)CO)C[C@@H](C)[C@H](CN(C)S(=O)(=O)c2ccccc2)OCCCC[C@@H](C)O3)cc1
11&-58	-12&-74	1.5&-11	COc1cccc(S(=O)(=O)N2C[C@@H]3N[C@H](C2)C3c2ccc(-c3ccccc3C)cc2)c1 (stereo partly drawn)
-11	-37	28	O=C(Nc1ccc(F)cc1)N1CC(=O)N2[C@H](CO)[C@@H](c3ccc(C#Cc4ccccc4)cc3)[C@@H]2C1
1	-3	2.5	C[C@@H]1CN([C@H](C)CO)C(=O)c2cc(NC(=O)C3CCCCC3)ccc2O[C@@H](C)CCCCO[C@@H]1CN(C)S(=O)(=O)c1ccc(F)cc1
1	-10	-2.5	Cc1ccc(CN2CC(=O)N3[C@@H](CO)[C@H](c4ccc(-c5ccccc5F)cc4)[C@@H]3C2)cc1
-7	-15	-0.2	O=C(C[C@H]1CC[C@H]2[C@@H](COC[C@@H](O)CN2Cc2ccc3c(c2)OCO3)O1)Nc1ccccc1
-2	4	1.6	COc1ccc(C#Cc2ccc3c(c2)[C@H]2[C@H](CCN2C(=O)C2CCC2)[C@@H](CO)N3)cc1
0	9	0.9	COc1ccc2c3c([nH]c2c1)[C@@H](CO)N(C(=O)NC(C)C)CC31CCN(C(=O)c2ccncc2)CC1

(cont.)
rRNA inh HTS	rRNA inh HTS OD600	rRNA inh HTS RFP	compound
-2	11	1.3	N#C[C@@H]1[C@@H](c2ccccc2-c2cccc(F)c2)[C@H](CO)N1C(=O)C1CCCC1
3	-6	-3.0	CC(C)NC(=O)N(C)C[C@@H]1Oc2ncc(C#CC3CCCCC3)cc2C(=O)N([C@@H](C)CO)C[C@@H]1C
8&8	16&24	0.7&-1.7	Cn1cnc(S(=O)(=O)N2[C@@H]3CNC[C@H]2C3c2ccc(-c3cccnc3)cc2)c1 (stereo partly drawn)
-10	-26	28	COc1ccc2c3c([nH]c2c1)[C@@H](CO)N(Cc1ccc(Cl)cc1)CC31CN(Cc2ccccc2)C1
-51	-65	-4.6	O=C(Nc1ccc(F)cc1)N1CC(=O)N2[C@H](CO)[C@@H](c3ccc(-c4ccc(F)cc4)cc3)[C@@H]2C1
0	2	-0.7	O=C(NC[C@@H]1[C@@H](c2ccccc2)[C@@H](CO)N1C(=O)C1CCC1)NC1CCCC1
-25	-55	22	Cc1ccccc1-c1ccc([C@@H]2[C@@H](CO)N3C(=O)CN(C(=O)Nc4cccc(F)c4)C[C@H]23)cc1
6	-2	2.2	O=C1CNC[C@H]2[C@@H](c3ccc(C#CC4CCCC4)cc3)[C@H](CO)N12
-37	-60	-2.6	O=C(c1cnccn1)N1CC(=O)N2[C@H](CO)[C@@H](c3ccc(C#CC4CCCCC4)cc3)[C@@H]2C1
1	8	-2.5	CN1c2ccc(-c3ccc(F)cc3)cc2[C@H]2[C@H](CCN2S(=O)(=O)c2ccc(F)cc2)[C@H]1CO

By substructure: the compounds so far containing an NH in an aromatic ring (3)
rRNA inh HTS	rRNA inh HTS OD600	rRNA inh HTS RFP	compound
-2	2	3.1	CCCNC(=O)N1CC2(CCN(Cc3ccc(F)cc3)CC2)c2c([nH]c3cc(OC)ccc23)[C@H]1CO
0	9	0.9	COc1ccc2c3c([nH]c2c1)[C@@H](CO)N(C(=O)NC(C)C)CC31CCN(C(=O)c2ccncc2)CC1
-10	-26	28	COc1ccc2c3c([nH]c2c1)[C@@H](CO)N(Cc1ccc(Cl)cc1)CC31CN(Cc2ccccc2)C1

Following part
rRNA inh HTS	rRNA inh HTS OD600	rRNA inh HTS RFP	compound
-3	11	-2.1	COc1ccc(-c2ccc([C@H]3[C@H]4CN(C(=O)C5CCC5)CC(=O)N4[C@H]3CO)cc2)cc1
-1	-4	-2.2	CO[C@@H]1CN(C)C(=O)c2ccc(NC(=O)c3ccc(F)cc3)cc2OC[C@@H](C)N(C(=O)CN(C)C)C[C@H]1C
-11	-20	0.5	C/C=C/c1ccccc1[C@@H]1[C@@H](C#N)N(c2nc(CC)cs2)[C@@H]1CO
-2	-1	-1.1	Cc1noc(C)c1NC(=O)Nc1ccc2c(c1)C(=O)N([C@H](C)CO)C[C@@H](C)[C@H](CN(C)S(=O)(=O)c1ccc(F)cc1)OCCCC[C@H](C)O2
-60	-82	-14	CO[C@@H]1CN(C)C(=O)c2cc(NC(=O)Nc3cc(Cl)cc(Cl)c3)ccc2OC[C@@H](C)NC[C@@H]1C
7	7	0.7	CC(=O)Nc1ccc2c(c1)C(=O)N(C)[C@H]1CC[C@H](CC(=O)Nc3cccc(F)c3)O[C@@H]1CO2
1	3	0.5	CO[C@H]1CN(C)C(=O)c2cc(NC(=O)CC(F)(F)F)ccc2OC[C@@H](C)N(CC2CC2)C[C@H]1C
0	-19	10	COc1cccc(C#Cc2ccc([C@H]3[C@@H](CO)N4C(=O)CN(C(=O)C5CC5)C[C@@H]34)cc2)c1
2	4	-2.6	COc1ccc2c3c([nH]c2c1)[C@H](CO)N(C(=O)c1ccc(F)cc1)CC31CCN(C(=O)NC(C)C)CC1
4	8	-1.3	C[C@H](CO)N1C[C@H](C)[C@@H](CN(C)C(=O)Nc2ccc3c(c2)OCO3)Oc2ccc(NC(=O)Nc3ccccc3)cc2C1=O

Some of these compounds in order of molar mass, rising.
rRNA inh HTS	rRNA inh HTS OD600	rRNA inh HTS RFP	compound
-11	-20	0.5	C/C=C/c1ccccc1[C@@H]1[C@@H](C#N)N(c2nc(CC)cs2)[C@@H]1CO
0	-19	10	COc1cccc(C#Cc2ccc([C@H]3[C@@H](CO)N4C(=O)CN(C(=O)C5CC5)C[C@@H]34)cc2)c1
7	7	0.7	CC(=O)Nc1ccc2c(c1)C(=O)N(C)[C@H]1CC[C@H](CC(=O)Nc3cccc(F)c3)O[C@@H]1CO2
2	4	-2.6	COc1ccc2c3c([nH]c2c1)[C@H](CO)N(C(=O)c1ccc(F)cc1)CC31CCN(C(=O)NC(C)C)CC1
-2	-1	-1.1	Cc1noc(C)c1NC(=O)Nc1ccc2c(c1)C(=O)N([C@H](C)CO)C[C@@H](C)[C@H](CN(C)S(=O)(=O)c1ccc(F)cc1)OCCCC[C@H](C)O2

(continued)
rRNA inh HTS	rRNA inh HTS OD600	rRNA inh HTS RFP	compound
-2	-3	-2.5	CO[C@@H]1CN(C)C(=O)c2ccc(NS(C)(=O)=O)cc2OC[C@H](C)N(C(=O)C2CCCCC2)C[C@H]1C
-1	0	0.9	CCC(=O)NC[C@H]1N[C@H](CO)[C@@H]1c1ccc(-c2cccnc2)cc1
-2	1	4.2	COc1ccc2c3c(n(C)c2c1)[C@H](CO)N(CC1CCOCC1)CC31CN(C(=O)c2cccc(F)c2)C1
0	0	1.3	C[C@@H]1CN([C@@H](C)CO)C(=O)c2cc(NC(=O)C3CCCCC3)ccc2O[C@@H](C)CCCCO[C@@H]1CN(C)C
0	5	0.2	CCCNC(=O)Nc1ccc2c(c1)C(=O)N(C)C[C@H](OC)[C@H](C)CN(Cc1ccccn1)[C@H](C)CO2
2	5	-0.6	CCN1[C@@H]2c3ccc(-c4cccnc4)c(=O)n3C[C@H]1[C@H](CO)[C@H]2C(=O)NC1CCCC1
-7	-9	1.9	C[C@@H]1CN([C@H](C)CO)S(=O)(=O)c2ccc(-c3ccc(F)cc3)cc2O[C@@H]1CN(C)C(=O)Nc1ccc(F)cc1

Compound activity as filed in PubChem.

Not all compounds are listed; count on the stated rates, not on these rows.
